Mtb growth: M. tuberculosis H37Rv growth inhibitors, H37Rv strain (AID 1626); M. tuberculosis H37Rv growth inhibition; higher % means a stronger effect; inhibition, % at 10 µM; hits with a dose series show IC50 in µM; 220,000 tested, 0.95% active;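 active means confirmed in a dose series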;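 further: bacteria incubated seven days before Alamar blue readout; 0% = bacteria only wells and 100% = bacteria with antibiotic wells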
YopH PTP inh: blocks Yersinia enterocolitica YopH tyrosine phosphatase; inhibition, %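 (about 10 µM by stock and volumes)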; fluorescence Ex485/Em525; 140,000 tested, 0.16% active;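 active means inhibition of 50% or more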;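 further: controls were vehicle for no effect and minimum signal wells for full effect; inactives centre near -20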
Mtb betalactam: beta-lactam sensitization of Mtb H37Rv. M. tuberculosis H37Rv growth with meropenem, percent inhibition; hits of this screen are not shown here. 330,000 tested, 0.27% active. AID 434955. inhibition, % at 25 µM;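 active means about 74% or more and at least 40 points above the plate without the antibiotic, then above 30% in a dose series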;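 further: growth measured after seven days incubation then overnight dye step; 0% = bacteria only wells and 100% = bacteria with antibiotic; twin plates without the antibiotic show which effects depend on it; some results filed as inactive read as strong as hits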
RecA splice inh: blocks M. tuberculosis RecA intein splicing | P9WHJ3 | cell-free RecA intein splicing, fluorescence | 290,000 tested, 0.75% active | inhibition, %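 (about 9 µM by stock and volumes)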 | AID 2221; in the data active means inhibition above about 30%;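 further: 0% = vehicle wells and 100% = reference inhibitor control wells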
Target sequence (P9WHJ3 whole entry, looked up, canonical isoform): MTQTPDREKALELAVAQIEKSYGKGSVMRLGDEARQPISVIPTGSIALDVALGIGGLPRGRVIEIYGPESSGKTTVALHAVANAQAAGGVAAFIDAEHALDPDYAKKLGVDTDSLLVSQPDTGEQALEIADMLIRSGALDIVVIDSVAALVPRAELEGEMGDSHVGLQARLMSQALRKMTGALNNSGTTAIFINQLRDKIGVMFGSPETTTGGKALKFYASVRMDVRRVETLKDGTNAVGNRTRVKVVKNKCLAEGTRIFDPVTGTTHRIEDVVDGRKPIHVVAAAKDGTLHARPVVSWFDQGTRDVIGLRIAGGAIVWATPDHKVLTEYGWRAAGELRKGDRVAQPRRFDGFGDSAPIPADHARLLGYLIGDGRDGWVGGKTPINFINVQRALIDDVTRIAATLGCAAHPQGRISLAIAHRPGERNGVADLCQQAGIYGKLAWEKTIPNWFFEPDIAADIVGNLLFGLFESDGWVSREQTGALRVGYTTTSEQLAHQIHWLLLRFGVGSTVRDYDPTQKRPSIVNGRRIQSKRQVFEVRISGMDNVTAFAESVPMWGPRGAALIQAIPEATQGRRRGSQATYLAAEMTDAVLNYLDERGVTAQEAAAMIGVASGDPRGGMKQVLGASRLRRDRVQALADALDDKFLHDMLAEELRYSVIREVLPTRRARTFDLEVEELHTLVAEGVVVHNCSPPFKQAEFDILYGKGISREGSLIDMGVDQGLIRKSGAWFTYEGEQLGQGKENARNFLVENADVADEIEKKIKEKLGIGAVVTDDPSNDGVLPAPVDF
Arbovirus inh: blocks arbovirus infection | arbovirus infection cell-based antiviral screen | inhibition, % at 10 µM | 200,000 tested, 0.37% active;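 active means inhibition from about 30%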;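 further: bluetongue infection of BSR cells; cell survival read as ATP light after 72 h; 0% = infected wells without compound and 100% = uninfected wells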
Arbovirus inh repeat: also measured in Arbovirus inh; calls as there; inhibition, %; measured here: 10K subset replicate screen; many hits read low in the repeat;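 first of two repeat runs on a subset; 0% = infected and 100% = uninfected wells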
* hit, by the source's call; . = not tested or not shown.

SMILES | Mtb growth | YopH PTP inh | Mtb betalactam | RecA splice inh | Arbovirus inh | others
COC(=O)c1cccc(NC(=O)CSc2nnc(COc3ccccc3)n2C)c1 | -2% | -6 | -8 | -3.0 | 7
Cc1ccc(/C=N\Nc2nc3ccc(Cl)cc3[nH]2)o1 | 21% | -30 | 92 | 0.4 | -7
O=C(N1CCN(c2ccccn2)CC1)N1c2ccccc2Sc2ccccc21 | . | -17 | -3 | 1.6 | -26
O=C1c2ccccc2C(O)(c2ccccc2)N1C1CC1 (stereo unspecified) | 12% | . | -3 | -5.3 | .
O=C(CCCC(=O)N(CC(=O)NC1CCCCC1)CC1CCCO1)Nc1ccccn1 (stereo unspecified) | -3% | -6 | -5 | 1.6 | 8
Cc1nc(NC(=O)c2ccccc2)sc1-c1csc(Nc2ccc(Cl)cc2)n1 | -2% | -32 | 81 | 0.7 | -9
O=C(Nc1nnc(-c2ccc3c(c2)CCCC3)o1)c1ccc(Cl)cc1Cl | 0.62µM* | 5 | 99 | -3.8 | -20
O=c1c2c3c(sc2ncn1/N=C/c1ccncc1)CCCC3 | -5% | . | -3 | 1.6 | -5
CC(C)N(Cc1ccccc1)C(=S)NC1CCCCC1 | 5% | . | -2 | 5.0 | 11
CCN1C(=NCc2cccc(Cl)c2)N[C@@H](c2cccc(F)c2)C(C(=O)OC)=C1C | . | . | -4 | 4.5 | .
COc1ccc(CCNC(=O)C(=O)NCc2ccccc2C)cc1OC | -3% | . | -6 | -2.6 | 12
CC(=O)NC(C)c1nc2ccccc2n1Cc1ccccc1F (stereo unspecified) | -2% | -28 | 1 | -2.3 | 7 | Arbovirus inh repeat=-1
O=C(CSc1nc2ncc(Cl)cc2[nH]1)Nc1cccc(F)c1 | . | . | 75 | -0.5 | .
O=C(O)CC1(CC(=O)NCc2ccc(Cl)cc2)CCCCC1 | . | . | -3 | 0.7 | .
O=S(=O)(c1ccc(C2CCCCC2)cc1)N1CCOCC1 | 4% | -40 | -5 | -1.1 | 6
CCC(=O)N/N=C(\C)CC(=O)Nc1ccc(Cl)cc1 | 6% | -32 | 7 | 0.4 | -14
COc1cc(/C=C\C(=O)OCn2nnc3ccccc3c2=O)cc(OC)c1OC | 70% | . | 99 | -3.8 | -1
Cn1nnnc1SCc1csc(C2C(C#N)=C(N)OC3=C2C(=O)CCC3)c1 (stereo unspecified) | 4% | . | -12 | -2.2 | 1
CS(=O)(=O)Nc1cccc(-c2cn3c(n2)SCC3)c1 | . | . | -7 | -4.6 | .
O=C1CSC(c2ccccc2[N+](=O)[O-])N1c1ccc(O)cc1 (stereo unspecified) | 1% | . | 4 | -2.4 | -1
Cc1cc(N/N=C/c2ccccc2)nc(N2CCOCC2)n1 | 5% | . | -2 | -0.6 | .
CCCCC(=O)Nc1nn(C)c2nc3c(C)cccc3cc12 | 2% | -38 | -6 | -14 | -4
Cc1nn(-c2ccccc2)c(C)c1C(=O)OCC(N)=O | -6% | . | -7 | 1.6 | -3
O=C(CN1CCN(C2CCCCC2)CC1)Nc1ccccc1N1CCCCC1 | 3% | -15 | 6 | 3.3 | 10 | Arbovirus inh repeat=7
COC(=O)c1ccc(C(=O)OC)c(NC(=S)N2CCCCC2)c1 | -5% | -10 | 16 | -6.0 | 3
O=C(Nc1nc(-c2ccc(-c3ccccc3)cc2)cs1)C1=COCCO1 | 1% | -28 | -2 | 0.3 | -4
CC(C)c1ccccc1OCC(=O)NN1C(=O)c2ccccc2C1=O | -8% | . | -2 | 0.4 | 9
Cc1cc(C)n(-c2nc3c(c(=O)[nH]c(=O)n3C)n2CCc2ccccc2)n1 | -5% | -47 | 18 | 2.3 | -17
Cc1ccc(O)c(C2=NCCNC(C(F)(F)C(F)F)=C2)c1 | -12% | -5 | 9 | 3.4 | 8
O=C(CSc1ccc2ccccc2n1)N/N=C/c1ccc(O)cc1 | . | . | -4 | -0.7 | .
Cc1cc2cc(CN(CCCN3CCOCC3)C(=O)NC3CCCCC3)c(=O)[nH]c2cc1C | 0% | -57 | 10 | 0.2 | -6
CCO[C@H]1OC(C(=O)N2CCOCC2)=C[C@@H](c2cn(C(C)=O)c3ccccc23)[C@@H]1CCCO | -7% | . | -2 | 0.1 | 1
CCCCc1ccc(C(=O)NC(C(=O)O)C(C)C)cc1 (stereo unspecified) | -7% | -25 | 5 | -0.7 | 2
S=C(Nc1cccc2ccccc12)NC1CCCCC1 | 5% | . | -1 | 3.6 | 12
COCC(C)Nc1ccc(S(=O)(=O)N2CCCC2)cc1[N+](=O)[O-] (stereo unspecified) | 3% | . | 1 | -2.0 | -1
CCCCn1c(O)c(C(=O)/C=C/c2ccc3c(c2)OCO3)c(=O)[nH]c1=O | 4.5µM* | . | -7 | 0.5 | .
COC(=O)c1sccc1S(=O)(=O)Nc1ccc(Cl)cc1 | -12% | . | -11 | 2.1 | .
Cc1ccc(N(C(C)C(=O)O)S(=O)(=O)c2c(C)[nH]c(=O)[nH]c2=O)cc1 (stereo unspecified) | -15% | -42 | 0 | 2.4 | 9 | Arbovirus inh repeat=11
CS(=O)(=O)N1CCC(C(=O)O)CC1 | -4% | 3 | 2 | 3.8 | 8
CC1Cc2ccccc2C(CCc2ccccc2)=N1 (stereo unspecified) | . | . | -7 | -1.4 | .

Of the compounds above, these have two or more sulfur atoms.
SMILES | Mtb growth | YopH PTP inh | Mtb betalactam | RecA splice inh | Arbovirus inh | others
Cc1nc(NC(=O)c2ccccc2)sc1-c1csc(Nc2ccc(Cl)cc2)n1 | -2% | -32 | 81 | 0.7 | -9
Cn1nnnc1SCc1csc(C2C(C#N)=C(N)OC3=C2C(=O)CCC3)c1 (stereo unspecified) | 4% | . | -12 | -2.2 | 1
CS(=O)(=O)Nc1cccc(-c2cn3c(n2)SCC3)c1 | . | . | -7 | -4.6 | .
COC(=O)c1sccc1S(=O)(=O)Nc1ccc(Cl)cc1 | -12% | . | -11 | 2.1 | .

Next records
SMILES | Mtb growth | YopH PTP inh | Mtb betalactam | RecA splice inh | Arbovirus inh | others
Cc1ccc(C(c2nnnn2CS(=O)(=O)c2ccc(C)cc2)N2CCC(C)CC2)cc1 (stereo unspecified) | 0% | 2 | -8 | -4.1 | 1
COc1ccc2cc(CN(CC3CCCO3)S(=O)(=O)c3ccccc3)c(=O)[nH]c2c1 (stereo unspecified) | 2% | -20 | 1 | -0.8 | -2
O=C1N[C@@H](Cc2ccccc2)C(=O)N2[C@@H]1C[C@]1(Br)c3ccccc3N(S(=O)(=O)c3ccccc3)[C@H]21 | 0% | . | 0 | 3.7 | .
CCC1CCCCN1C(=O)CCc1nnc(Cc2cc(OC)ccc2OC)o1 (stereo unspecified) | 1% | . | -14 | 0.8 | .
CCCc1nc2sc3ccccc3c(=O)c2c(=O)n1CCOC | . | -2 | -6 | -2.3 | -1
O=C(CSc1ccc(C(F)(F)F)cc1[N+](=O)[O-])Nc1ccccc1 | -3% | -23 | 7 | . | 5
CCCCn1c(N)c(N(CC(C)C)C(=O)c2cc3c(s2)CCCCC3)c(=O)[nH]c1=O | . | . | -4 | -1.6 | .
O=C(Oc1ccccc1C(=O)Nc1ccccc1)c1ccccc1Br | 0% | -19 | 7 | 54* | -1
CN(CCc1ccccn1)C(=O)CCC1CCCN(C(=O)c2ccccn2)C1 (stereo unspecified) | 3% | . | -12 | -4.2 | 3
Cc1cc(C)cc(OCC(=O)NCC2CCCO2)c1 (stereo unspecified) | 0% | 13 | -1 | 2.1 | -2
Cc1ccc(CSc2nc3ccccc3c(=O)n2CCCC(=O)NCc2ccco2)cc1 | -6% | -40 | 4 | 0.1 | -6
CCn1nc(C)c(CNC(=O)c2ccc(OC3CCN(Cc4ccccn4)CC3)cc2)c1C | . | . | -1 | -1.0 | .
COc1cccc(OCC(O)CN2CC(C)CC(C)C2)c1 (stereo unspecified) | 1% | -16 | -9 | -0.2 | 9
CCc1cccc(OC2OC(CO)C(O)C(O)C2NC(C)=O)c1 (stereo unspecified) | 2% | . | -1 | -2.9 | 12
O=C(CSc1ccc(F)cc1)NC12CC3CC(CC(C3)C1)C2 | 3% | . | -4 | -0.5 | 6
CCN(CC(=O)Nc1c(F)cccc1F)C(=O)Cc1n[nH]c(=O)c2ccccc12 | . | . | -2 | 1.0 | .
CCc1ccc(NC(=O)c2cc(C)on2)cc1 | 23% | -31 | -11 | 1.9 | -7
COC(=O)c1cccc(NC(=O)C(C)N2C(=O)c3ccccc3C2=O)c1 (stereo unspecified) | -13% | -45 | 1 | . | 2 | Arbovirus inh repeat=8
COc1ccc(O)c(-c2[nH]ncc2C(=O)c2ccccc2)c1 | 0% | -44 | -13 | -4.6 | 8 | Arbovirus inh repeat=5
COc1ccc2[nH]c(C)c(CCNC(=S)Nc3cccc(C)c3)c2c1 | . | -30 | 0 | 5.4 | -2
CS(=O)(=O)N1CCC(C(=O)Nc2ccc(Cl)cc2)CC1 | . | . | 2 | -2.2 | .
Cc1ccc(S(=O)(=O)N2CCN(C(=O)CN3C(=O)NC4(CCCC4)C3=O)CC2)c(C)c1 | . | . | -1 | -2.0 | .
CCCCC(=O)N(CCOC)c1nnc(-c2ccccc2C)s1 | 9% | . | 10 | 12 | 4
CCCCCCCC(=O)N/N=C/c1ccncc1 | 58% | . | 99 | -0.7 | .
CCCCN1C(=O)CC(C(=O)O)C1c1ccc(OC)cc1 (stereo unspecified) | -5% | -20 | -7 | 1.4 | 10
Cc1cccc(NC(=O)CSc2nc(-c3ccccc3)c(C#N)c(=O)[nH]2)c1C | . | -37 | -4 | 1.6 | 4
CCN1CCC2(CC1)N=C(c1ccc(F)cc1)C(=S)N2C(=O)c1ccc(C)cc1 | -2% | 78* | 3 | 1.3 | 7
CC12CN(Cc3ccccc3)CC(C)(CN(Cc3ccccc3)C1)C2=O | -1% | . | -5 | 3.4 | 1
O=C(Cc1c(O)c2ccccc2[nH]c1=O)NCc1ccccc1F | 3% | -49 | -2 | 0.7 | -2
Cc1ccc(C(=O)N2CCN(C)CC2)cc1S(=O)(=O)N1CCOCC1 | . | . | -3 | -0.3 | .
CCCCCC(=O)N/N=C(\C)c1ccccn1 | 1% | -36 | 94 | -4.6 | -38
CCC(C)(C)NC(=O)C(c1ccc(OC)cc1)N(C(=O)CCC(=O)Nc1cc(C)on1)c1ccc(OC)c(OC)c1 (stereo unspecified) | . | . | 0 | 1.0 | .
O=c1oc2ccccc2cc1-c1nnc(NCc2ccco2)s1 | -2% | 3 | 0 | -103 | -6
CCOC(=O)C1=C(OCc2ccc(Cl)cc2)C2C=C(C)C=CC2N=C1 (stereo unspecified) | 9% | 3 | -5 | . | -3
COC(=O)c1ccc(NC(=S)NN2CCOCC2)cc1 | -6% | . | -6 | -3.2 | 12
Cc1cc(NC(=O)c2c(Cl)c(C)nn2C)no1 | . | -9 | -6 | -1.2 | 1
COC(=O)c1nc2cc3c(cc2c(C)c1C(=O)OC)OCO3 | -1% | -38 | -7 | 0.0 | 7
COc1ccc(CNC(=O)Nc2cc(C)ccc2C)cc1 | 3% | . | -3 | -1.2 | 0
Cn1c(N)c(C(=O)COC(=O)c2ccc3c(c2)OCCO3)c(=O)n(C)c1=O | -14% | -18 | -13 | 0.2 | 3
O=C(Nc1ccncc1)C1CCN(S(=O)(=O)c2ccc(Cl)cc2)CC1 | . | . | -10 | -2.4 | .
COC(=O)CC1SC(=O)NC1=Nc1ccc(O)cc1 (stereo unspecified) | 0% | -7 | -9 | -0.1 | 8
COc1ccc(C(=O)N=c2nc3ccccn3s2)cc1 | -10% | -25 | -9 | 1.6 | -9
COc1ccc(S(=O)(=O)Nc2ccc(S(=O)(=O)N3CCOCC3)cc2)cc1C | 3% | -12 | -2 | 0.9 | -1

Arranged by formula weight (smallest number first): part of the list above
SMILES | Mtb growth | YopH PTP inh | Mtb betalactam | RecA splice inh | Arbovirus inh | others
CCCCCC(=O)N/N=C(\C)c1ccccn1 | 1% | -36 | 94 | -4.6 | -38
O=C(Nc1ccncc1)C1CCN(S(=O)(=O)c2ccc(Cl)cc2)CC1 | . | . | -10 | -2.4 | .
COc1ccc(S(=O)(=O)Nc2ccc(S(=O)(=O)N3CCOCC3)cc2)cc1C | 3% | -12 | -2 | 0.9 | -1

Screening data as filed in PubChem BioAssay.

Some of the compounds tested. The share of hits here may be higher or lower than overall.
